Source: PubChem BioAssay (Broad Institute)
Yeast UUG start: alters start codon recognition fidelity in yeast; activity score, % at 18.7 µM; AID 602363; S. cerevisiae UUG-firefly luciferase reporter, luminescence/redox ratio; hit rate 0.13% among 350,000;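 active means replicate mean at a twofold rise or more, about +100% in these data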;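 further: firefly luciferase made from a UUG start codon reports start codon fidelity; reporter light over untreated wells divided by growth signal over untreated wells; some hits fall short of that in this replicate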
Env fusion inh: blocks HIV Env-driven cell-cell fusion. HeLa-JRFL Env/CEM21 cell fusion, luciferase. inhibition, % at 12.3 µM. hit rate 1.1% among 360,000. AID 651610;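 active means mean replicate inhibition score of at least 50 and every replicate individually at or above 50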;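 further: 0% = plate neutral controls and 100% = maraviroc near 300 nM; one replicate is shown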
Starred values were filed as active, the others as inactive; [ ] = remark or other dose.

SMILES	Yeast UUG start	Env fusion inh
COc1ccc(S(=O)(=O)Nc2cccc3c2O[C@H](CN(C)S(=O)(=O)c2ccc(Cl)cc2)[C@@H](C)CN([C@@H](C)CO)C3=O)cc1	-10	-59[16.7 µM]
COc1ccccc1-c1ccc2c(c1)O[C@H](CN(C)C)[C@H](C)CN([C@@H](C)CO)S2(=O)=O	10	-42[16.7 µM]
COc1ccc(S(=O)(=O)N(C)C[C@@H]2Oc3ccc(NC(=O)C4CCCCC4)cc3CC(=O)N([C@H](C)CO)C[C@@H]2C)cc1	-5	74*[16.7 µM]
Cc1noc(C)c1S(=O)(=O)Nc1ccc2c(c1)C(=O)N([C@H](C)CO)C[C@@H](C)[C@H](CN(C)S(=O)(=O)c1ccc(Cl)cc1)OCCCC[C@@H](C)O2	3	-19[16.7 µM]
COCC(=O)N(C)C[C@H]1Oc2cc(-c3ccc(C)cc3)ccc2S(=O)(=O)N([C@@H](C)CO)C[C@H]1C	-3	1[16.7 µM]
COc1ccccc1S(=O)(=O)N[C@@H]1CC[C@H](CC(=O)N2CCCCC2)O[C@H]1CO	-24	-7[16.7 µM]
C[C@H]1CN([C@@H](C)CO)C(=O)c2cc(NC(=O)Nc3ccccc3)ccc2O[C@H]1CN(C)S(=O)(=O)c1ccccc1	13	24[16.7 µM]
C[C@@H]1CN([C@@H](C)CO)C(=O)c2cccc(NS(=O)(=O)c3ccc(Cl)cc3)c2O[C@@H]1CN(C)S(C)(=O)=O	3	-13[16.7 µM]
C[C@@H]1CN([C@@H](C)CO)C(=O)Cc2cc(NS(=O)(=O)c3ccccc3)ccc2O[C@@H]1CN(C)Cc1ccc(C(=O)Nc2ccccc2N)cc1	0	-71[16.7 µM]
C[C@@H]1CN([C@@H](C)CO)C(=O)Cc2cc(NC(=O)Cc3cn(C)c4ccccc34)ccc2O[C@H]1CN(C)C(=O)Nc1cccc2ccccc12	-5	-6[16.7 µM]
COc1cccc(C(=O)Nc2ccc3c(c2)OC[C@H](C)N(C(C)=O)C[C@@H](C)[C@@H](OC)CN(C)C3=O)c1	43	10[16.7 µM]
CCCC(=O)Nc1ccc2c(c1)C(=O)N(C)C[C@@H](OC)[C@H](C)CN(Cc1cncnc1)[C@@H](C)CO2	3	-4[16.7 µM]
Cc1ccc(S(=O)(=O)N(C)C[C@H]2OCCCC[C@H](C)Oc3ccc(NC(=O)Nc4ccccc4)cc3C(=O)N([C@@H](C)CO)C[C@H]2C)cc1	-18	-6[16.7 µM]
C[C@H]1CN([C@@H](C)CO)C(=O)c2cc(C3=CCCC3)cnc2O[C@H]1CN(C)Cc1ccccc1	-9	-17[16.7 µM]
COC(=O)C[C@H]1CC[C@H]2[C@@H](COc3ccc(NC(=O)Nc4ccc(C)cc4)cc3C(=O)N2C)O1	20	5[16.7 µM]
Cc1ccc(-c2cnc3c(c2)C(=O)N([C@@H](C)CO)C[C@H](C)[C@H](CN(C)C(=O)Cc2cccnc2)O3)cc1	21	8[16.7 µM]
CC(C)NC(=O)Nc1ccc2c(c1)C(=O)N([C@H](C)CO)C[C@@H](C)[C@H](CN(C)S(=O)(=O)c1ccc(F)cc1)OCCCC[C@@H](C)O2	6	-22[16.7 µM]
C[C@@H]1CCCCO[C@@H](CN(C)Cc2ccc(C(=O)O)cc2)[C@H](C)CN([C@H](C)CO)C(=O)c2cc(NC(=O)Nc3ccc(C(F)(F)F)cc3)ccc2O1	-3	2[16.7 µM]
CCCC(=O)Nc1ccc2c(c1)C(=O)N(C)[C@@H]1CC[C@H](CC(=O)NCC3CCCCC3)O[C@@H]1CO2	38	18[16.7 µM]
COc1ccc(S(=O)(=O)N(C)C[C@@H]2Oc3c(NS(=O)(=O)c4cccs4)cccc3C(=O)N([C@@H](C)CO)C[C@@H]2C)cc1	4	3[16.7 µM]
COc1cccc(NC(=O)N(C)C[C@@H]2Oc3cc(-c4cccc(C(=O)N(C)C)c4)ccc3S(=O)(=O)N([C@@H](C)CO)C[C@H]2C)c1	3	-12[16.7 µM]
C[C@H]1CCCCO[C@H](CN(C)Cc2ccncc2)[C@@H](C)CN([C@@H](C)CO)C(=O)c2cc(NS(C)(=O)=O)ccc2O1	-3	-13[16.7 µM]
CNC[C@H]1Oc2ncc(Br)cc2C(=O)N([C@H](C)CO)C[C@@H]1C	7	2[16.7 µM]
COc1ccc(NC(=O)N(C)C[C@@H]2Oc3ncc(C#Cc4ccc(OC)c(OC)c4)cc3C(=O)N([C@H](C)CO)C[C@@H]2C)cc1	-11	21[16.7 µM]
COc1ccc(NC(=O)Nc2ccc3c(c2)C(=O)N([C@@H](C)CO)C[C@@H](C)[C@H](CN(C)C(=O)Nc2cccc4ccccc24)OCCCC[C@H](C)O3)cc1	-7	23[16.7 µM]
CC(C)NC(=O)N(C)C[C@@H]1Oc2ccc(NS(=O)(=O)c3cccs3)cc2CC(=O)N([C@H](C)CO)C[C@H]1C	-10	-4[16.7 µM]
C[C@@H]1CCCCO[C@H](CN(C)S(C)(=O)=O)[C@H](C)CN([C@@H](C)CO)C(=O)c2cc(NC(=O)Nc3ccc(F)cc3)ccc2O1	-7	-7[16.7 µM]
C[C@H](CO)N1C[C@H](C)[C@H](CN(C)Cc2ccncc2)Oc2cc(C3=CCCC3)ccc2S1(=O)=O	7	28[16.7 µM]
COc1ccc(NC(=O)N(C)C[C@H]2Oc3c(NS(C)(=O)=O)cccc3C(=O)N([C@H](C)CO)C[C@@H]2C)cc1	-5	-8[16.7 µM]
CC(C)NC(=O)N(C)C[C@@H]1Oc2ncc(C#CC3CCCC3)cc2C(=O)N([C@H](C)CO)C[C@@H]1C	7	-2[16.7 µM]
C[C@@H]1CN([C@@H](C)CO)C(=O)Cc2cc(NS(=O)(=O)c3ccc(F)cc3)ccc2O[C@H]1CN(C)C(=O)Nc1ccc(F)cc1	-6	1[16.7 µM]
COCC(=O)N(C)C[C@@H]1Oc2ncc(C#C[C@@H](C)O)cc2C(=O)N([C@H](C)CO)C[C@H]1C	-11	-25[16.7 µM]
COCC(=O)Nc1ccc2c(c1)OC[C@@H](C)N(CCC(F)(F)F)C[C@H](C)[C@@H](OC)CN(C)C2=O	-5	6[16.7 µM]
C[C@@H]1CN([C@@H](C)CO)C(=O)c2cc(NC(=O)Nc3ccc(C(F)(F)F)cc3)ccc2O[C@@H](C)CCCCO[C@H]1CN(C)CC1CCCCC1	6	10[16.7 µM]
C[C@H](CO)N1C[C@H](C)[C@@H](CN(C)Cc2ccccc2)Oc2ccc(NS(=O)(=O)c3cn(C)cn3)cc2C1=O	-5	10[16.7 µM]
C[C@H]1CN([C@@H](C)CO)S(=O)(=O)c2ccc(C#CCN(C)C)cc2O[C@@H]1CN(C)Cc1ccccc1F	12	-11[16.7 µM]
COc1ccc(NC(=O)N(C)C[C@H]2Oc3cc(-c4ccncc4)ccc3S(=O)(=O)N([C@@H](C)CO)C[C@H]2C)cc1	-16	-10[16.7 µM]
CN1C(=O)c2cc(NC(=O)Cc3ccccc3)ccc2OC[C@@H]2O[C@H](CC(=O)O)CC[C@H]21	-6	-12[16.7 µM]
C/C=C/c1ccc([C@@H]2[C@@H](C#N)N(C(=O)Cc3ccccn3)[C@@H]2CO)cc1	-1	5[16.7 µM]
C[C@H](CO)N1C[C@H](C)[C@H](CN(C)C(=O)CC2CC2)Oc2ncc(C#CC3CC3)cc2C1=O	14	-7[16.7 µM]
Cc1ccc(S(=O)(=O)N(C)C[C@H]2OCCCC[C@@H](C)Oc3ccc(NC(=O)Nc4ccc(C(F)(F)F)cc4)cc3C(=O)N([C@H](C)CO)C[C@@H]2C)cc1	-15	-27[16.7 µM]
Cc1ccc(S(=O)(=O)N(C)C[C@@H]2Oc3c(NS(=O)(=O)c4ccc(F)cc4)cccc3C(=O)N([C@H](C)CO)C[C@@H]2C)cc1	1	-12[16.7 µM]
COc1ccc(NC(=O)N(C)C[C@@H]2Oc3ncc(-c4ccc(OC)cc4)cc3C(=O)N([C@H](C)CO)C[C@@H]2C)cc1	19	-3[16.7 µM]
COCC(=O)N(C)C[C@H]1Oc2ncc(-c3ccc(C#N)cc3)cc2C(=O)N([C@H](C)CO)C[C@H]1C	-2	-7[16.7 µM]
C[C@H](CO)N1C[C@H](C)[C@H](CN(C)S(C)(=O)=O)Oc2cc(C#Cc3ccccc3)ccc2S1(=O)=O	-4	-3[16.7 µM]
CC(=O)N(C)C[C@H]1Oc2ncc(C#C[C@@H](C)O)cc2C(=O)N([C@@H](C)CO)C[C@H]1C	-3	-6[16.7 µM]
Cc1noc(C)c1S(=O)(=O)Nc1ccc2c(c1)C(=O)N([C@@H](C)CO)C[C@@H](C)[C@H](CN(C)C(=O)Nc1cccc3ccccc13)OCCCC[C@@H](C)O2	0	3[16.7 µM]
CCC(=O)N(C)C[C@@H]1Oc2cc(-c3ccccc3)ccc2S(=O)(=O)N([C@@H](C)CO)C[C@@H]1C	25	-12[16.7 µM]
CN1C(=O)c2cc(NC(=O)Cc3cccs3)ccc2OC[C@@H]2O[C@@H](CC(=O)O)CC[C@@H]21	6	24[16.7 µM]
C[C@@H]1CN([C@H](C)CO)S(=O)(=O)c2ccc(C#C[C@@H](C)O)cc2O[C@H]1CN(C)C(=O)CN(C)C	-6	-20[16.7 µM]
CN1C(=O)c2cc(NC(=O)c3cscn3)ccc2OC[C@H]2O[C@H](CC(=O)NCC3CC3)CC[C@H]21	0	-25[16.7 µM]
C[C@H]1CN([C@@H](C)CO)C(=O)Cc2cc(NS(=O)(=O)c3ccccc3)ccc2O[C@H]1CN(C)S(C)(=O)=O	-6	-13[16.7 µM]
CC(C)c1cn(CC[C@H]2CC[C@@H](NC(=O)Nc3cc(Cl)cc(Cl)c3)[C@H](CO)O2)nn1	-11	-10[16.7 µM]
CS(=O)(=O)Nc1ccc2c(c1)[C@@H]1C[C@@H](CC(=O)NC3CCCCC3)O[C@H](CO)[C@@H]1O2	52	-8[16.7 µM]
COc1ccc(S(=O)(=O)Nc2ccc3c(c2)CC(=O)N([C@@H](C)CO)C[C@@H](C)[C@@H](CN(C)Cc2ccc(Cl)c(Cl)c2)O3)cc1	4	-10[16.7 µM]
C[C@@H]1CN([C@@H](C)CO)C(=O)c2cc(Br)cnc2O[C@@H]1CN(C)CC1CCCC1	5	-10[16.7 µM]
C[C@H](CO)N1C[C@H](C)[C@@H](CN(C)Cc2ccccn2)Oc2cc(C#CC3CC3)ccc2S1(=O)=O	-11	15[16.7 µM]
CNC(=O)C[C@@H]1CC[C@H]2[C@@H](COc3ccc(NC(=O)Nc4ccc(Cl)cc4)cc3C(=O)N2C)O1	8	5[16.7 µM]
Cc1ccc(S(=O)(=O)N[C@H]2CC[C@@H](CCNC(=O)C3CCOCC3)O[C@@H]2CO)cc1	4	1[16.7 µM]
COc1ccc(NC(=O)N(C)C[C@@H]2Oc3c(NS(=O)(=O)c4c(C)noc4C)cccc3C(=O)N([C@@H](C)CO)C[C@@H]2C)cc1	-3	-4[16.7 µM]

The closing 2 entries of the part above lead into the next:
SMILES	Yeast UUG start	Env fusion inh
Cc1ccc(S(=O)(=O)N[C@H]2CC[C@@H](CCNC(=O)C3CCOCC3)O[C@@H]2CO)cc1	4	1[16.7 µM]
COc1ccc(NC(=O)N(C)C[C@@H]2Oc3c(NS(=O)(=O)c4c(C)noc4C)cccc3C(=O)N([C@@H](C)CO)C[C@@H]2C)cc1	-3	-4[16.7 µM]
CS(=O)(=O)Nc1ccc2c(c1)[C@@H]1C[C@H](CC(=O)N3CCc4ccccc4C3)O[C@H](CO)[C@@H]1O2	4	5[16.7 µM]
C[C@@H]1CN([C@H](C)CO)C(=O)c2cc(NC(=O)Cn3cnnn3)ccc2O[C@@H]1CN(C)S(C)(=O)=O	-21	-18[16.7 µM]
CN(C)CC(=O)N[C@H]1CC[C@@H](CC(=O)NCc2ccc(Cl)cc2)O[C@H]1CO	15	14[16.7 µM]
COc1ccc(S(=O)(=O)Nc2ccc3c(c2)C(=O)N([C@@H](C)CO)C[C@H](C)[C@H](CN(C)CC2CCCCC2)OCCCC[C@@H](C)O3)cc1	30	-11[16.7 µM]
C[C@H]1CN([C@@H](C)CO)C(=O)c2cc(-c3ccccc3)cnc2O[C@@H]1CN(C)C(=O)Cc1ccccn1	-14	5[16.7 µM]
C[C@@H]1CCCCO[C@@H](CN(C)C(=O)Nc2ccc(C(F)(F)F)cc2)[C@H](C)CN([C@@H](C)CO)C(=O)c2cc(NC(=O)NC3CCCCC3)ccc2O1	-6	6[16.7 µM]
COCC#Cc1cnc2c(c1)C(=O)N([C@@H](C)CO)C[C@H](C)[C@H](CN(C)S(=O)(=O)c1cn(C)cn1)O2	-1	-22[16.7 µM]
Cc1noc(C)c1NC(=O)Nc1ccc2c(c1)C(=O)N([C@H](C)CO)C[C@@H](C)[C@@H](CN(C)Cc1ccncc1)OCCCC[C@@H](C)O2	-3	-22[16.7 µM]
Cc1noc(C)c1NC(=O)N[C@H]1CC[C@@H](CC(=O)NCc2ccc(Cl)c(Cl)c2)O[C@H]1CO	-12	1[16.7 µM]

As a short view, six of the compounds above:
SMILES	Yeast UUG start	Env fusion inh
CS(=O)(=O)Nc1ccc2c(c1)[C@@H]1C[C@H](CC(=O)N3CCc4ccccc4C3)O[C@H](CO)[C@@H]1O2	4	5[16.7 µM]
C[C@@H]1CN([C@H](C)CO)C(=O)c2cc(NC(=O)Cn3cnnn3)ccc2O[C@@H]1CN(C)S(C)(=O)=O	-21	-18[16.7 µM]
CN(C)CC(=O)N[C@H]1CC[C@@H](CC(=O)NCc2ccc(Cl)cc2)O[C@H]1CO	15	14[16.7 µM]
COc1ccc(S(=O)(=O)Nc2ccc3c(c2)C(=O)N([C@@H](C)CO)C[C@H](C)[C@H](CN(C)CC2CCCCC2)OCCCC[C@@H](C)O3)cc1	30	-11[16.7 µM]
C[C@H]1CN([C@@H](C)CO)C(=O)c2cc(-c3ccccc3)cnc2O[C@@H]1CN(C)C(=O)Cc1ccccn1	-14	5[16.7 µM]
C[C@@H]1CCCCO[C@@H](CN(C)C(=O)Nc2ccc(C(F)(F)F)cc2)[C@H](C)CN([C@@H](C)CO)C(=O)c2cc(NC(=O)NC3CCCCC3)ccc2O1	-6	6[16.7 µM]

An excerpt; the hit share may differ from the screen's.
